Mtb bLac sens: beta-lactam sensitization of Mtb H37Rv, H37Rv. M. tuberculosis H37Rv growth with meropenem, percent inhibition; hits of this screen are not shown here. inhibition, % at 25 µM. actives 0.27% (n = 330,000);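 active = about 74% or more and at least 40 points above the plate without the antibiotic, then above 30% in a dose series; inconclusive = first-round hits that could not be retested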;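 also: growth measured after seven days incubation then overnight dye step; 0% = bacteria only wells and 100% = bacteria with antibiotic; twin plates without the antibiotic show which effects depend on it; some results filed as inactive read as strong as hits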
Mtb H37Rv: M. tuberculosis H37Rv growth inhibitors, H37Rv strain (AID 1626); M. tuberculosis H37Rv growth inhibition; higher % means a stronger effect; actives 0.95% (n = 220,000); one-dose inhibition, % at 10 µM; IC50 in µM for titrated hits;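 active = confirmed in a dose series; inconclusive = inhibition above 80% but not taken into the dose series; inactive = below 80% or under 30% at every dose of the series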;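 also: bacteria incubated seven days before Alamar blue readout; 0% = bacteria only wells and 100% = bacteria with antibiotic wells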
RecA splice inh: Mtb RecA intein splicing inhibitors, primary screen, biochemical, fluorescence, HTS | Protein RecA (Mycobacterium tuberculosis (strain ATCC 25618 / H37Rv)), P9WHJ3 | inhibition, %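 (about 9 µM by stock and volumes)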 | actives 0.75% (n = 290,000) | cell-free RecA intein splicing; in the data active = inhibition above about 30%; inconclusive = no clear call, values can overlap the other calls;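 also: 0% = vehicle wells and 100% = reference inhibitor control wells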
Target sequence (P9WHJ3 whole entry, looked up, canonical isoform): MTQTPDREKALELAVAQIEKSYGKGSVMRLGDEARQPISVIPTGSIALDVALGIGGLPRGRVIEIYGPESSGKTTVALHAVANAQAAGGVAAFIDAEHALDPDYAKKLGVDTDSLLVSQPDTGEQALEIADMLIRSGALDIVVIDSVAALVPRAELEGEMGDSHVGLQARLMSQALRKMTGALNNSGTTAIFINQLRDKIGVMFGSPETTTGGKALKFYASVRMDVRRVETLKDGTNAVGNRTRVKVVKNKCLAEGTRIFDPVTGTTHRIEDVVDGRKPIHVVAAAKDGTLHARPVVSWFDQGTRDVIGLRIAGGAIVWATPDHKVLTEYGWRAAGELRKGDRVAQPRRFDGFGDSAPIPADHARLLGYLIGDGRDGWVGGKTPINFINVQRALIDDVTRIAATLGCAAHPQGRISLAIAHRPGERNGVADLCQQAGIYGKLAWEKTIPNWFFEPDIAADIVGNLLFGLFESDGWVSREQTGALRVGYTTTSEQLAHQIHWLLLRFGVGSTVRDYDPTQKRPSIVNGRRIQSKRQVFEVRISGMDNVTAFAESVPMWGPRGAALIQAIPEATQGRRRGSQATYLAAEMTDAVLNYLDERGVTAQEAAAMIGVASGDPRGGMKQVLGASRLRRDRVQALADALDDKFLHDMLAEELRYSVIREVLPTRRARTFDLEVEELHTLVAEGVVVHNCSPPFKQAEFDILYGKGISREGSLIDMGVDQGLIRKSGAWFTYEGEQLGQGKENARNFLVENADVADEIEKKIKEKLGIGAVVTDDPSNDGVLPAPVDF
Arbovirus inh: antivirals against arbovirus infection, primary screen, cell-based, full library, 10K replicate subset; arbovirus infection cell-based antiviral screen; actives 0.37% (n = 200,000); inhibition, % at 10 µM;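 active = inhibition from about 30%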;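 also: bluetongue infection of BSR cells; cell survival read as ATP light after 72 h; 0% = infected wells without compound and 100% = uninfected wells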
YopH PTP inh: YopH tyrosine phosphatase inhibitors, primary screen, biochemical, fluorescence Ex485/Em525 | AID 898, 2007 | YopH tyrosine phosphatase [Yersinia enterocolitica] | inhibition, %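 (about 10 µM by stock and volumes)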 | actives 0.16% (n = 140,000);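 active = inhibition of 50% or more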;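 also: controls were vehicle for no effect and minimum signal wells for full effect; inactives centre near -20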
An asterisk follows results filed as active. The list is partial (hit frequency here may not be typical).

How did Cc1cc2oc(=O)cc(CN3CCCCC3C)c2c(C)c1Cl (centres undefined) do in these assays?
Mtb bLac sens: 5; Mtb H37Rv: 0%; RecA splice inh: 1.9; Arbovirus inh: 8; YopH PTP inh: -17

How did COc1ccc(S(=O)(=O)n2cnc3cc(C)c(C)cc32)cc1C do in these assays?
Mtb bLac sens: 7; Mtb H37Rv: 8%; RecA splice inh: 3.6; Arbovirus inh: 3; YopH PTP inh: -35

How did Cc1cc(NS(=O)(=O)c2ccc(NC(=S)NC(=O)c3ccccc3)cc2)no1 do in these assays?
Mtb bLac sens: 52; Mtb H37Rv: 9%; RecA splice inh: 2.3; Arbovirus inh: 6; YopH PTP inh: 4

How did c1ccc(-c2nc3ccccn3c2NCc2ccc3c(c2)OCO3)cc1 do in these assays?
Mtb bLac sens: 8; Mtb H37Rv: 3%; RecA splice inh: -4.0; Arbovirus inh: 7; YopH PTP inh: -90

How did CCOC(=O)CSC1=NC(=O)/C(=C/c2ccc(OC)cc2)S1 do in these assays?
Mtb bLac sens: 100; Mtb H37Rv: 8%; RecA splice inh: 13; Arbovirus inh: 3; YopH PTP inh: -23

How did CC(C)C(=O)Nc1ccc2c3c(cccc13)CC2 do in these assays?
Mtb H37Rv: 7%; RecA splice inh: 0.3; Arbovirus inh: 4; YopH PTP inh: -22

What do the screens show for `COc1ccccc1OCc1nnc(SCC(=O)Nc2ccc(C)cc2)n1C`?
Mtb bLac sens: -12; Mtb H37Rv: 1%; RecA splice inh: 3.6; Arbovirus inh: 0; YopH PTP inh: -35

What do the screens show for `CCCSc1nsc(NC(=O)C(c2ccccc2)c2ccccc2)n1`?
Mtb bLac sens: 6; Mtb H37Rv: 12%; RecA splice inh: -2.5; Arbovirus inh: -33; YopH PTP inh: -14

How did COc1cc(C(=O)NC(=S)Nc2ccc(Cl)c(C(=O)O)c2)cc(OC)c1OC do in these assays?
Mtb bLac sens: 0; Mtb H37Rv: -11%; RecA splice inh: -0.2; Arbovirus inh: 0; YopH PTP inh: -37

How did CCOC(=O)c1nnn(-c2nonc2N)c1-c1ccc(F)cc1 do in these assays?
Mtb bLac sens: -4; Mtb H37Rv: 2%; RecA splice inh: -3.9; Arbovirus inh: 28

What do the screens show for `Cc1ccc2oc(-c3cccc(N)c3)nc2c1`?
Mtb bLac sens: 58; Mtb H37Rv: inconclusive; Arbovirus inh: -6

How did Cc1cc2oc(C(=O)Nc3ccc(S(N)(=O)=O)cc3)c(C)c2cc1Cl do in these assays?
Mtb bLac sens: -12; Mtb H37Rv: -9%; RecA splice inh: 4.5; Arbovirus inh: -19

What do the screens show for `CC[n+]1c(/C=C2/C=C(C)CC(C)(C)C2)sc2ccc(OC)cc21`?
Mtb bLac sens: 96; Mtb H37Rv: 6%; RecA splice inh: 24; Arbovirus inh: -5; YopH PTP inh: -35

What do the screens show for `CCOc1ccc(OCC(=O)N(CCC2=CCCCC2)c2c(N)n(Cc3ccccc3)c(=O)[nH]c2=O)cc1`?
Mtb bLac sens: 1; RecA splice inh: -3.1

What do the screens show for `COc1ccc(NC(=O)c2cc3cc(OC)ccc3oc2=N)cc1`?
Mtb bLac sens: 5; Mtb H37Rv: -1%; Arbovirus inh: -1; YopH PTP inh: -48

What do the screens show for `CC(=O)[C@@H]1[C@@H](C(=O)c2ccccc2)[C@]2(C(=O)Nc3ccccc32)[C@H]2C=Cc3cc(F)ccc3N12`?
Mtb bLac sens: -4; Mtb H37Rv: -4%; RecA splice inh: 5.7; Arbovirus inh: 0; YopH PTP inh: 11

How did CCNS(=O)(=O)c1ccc(NC(=O)c2ccccc2)cc1 do in these assays?
Mtb bLac sens: 1; Mtb H37Rv: -3%; RecA splice inh: -3.3; Arbovirus inh: 0; YopH PTP inh: -3

Results for CCOC(=O)c1nnc(-c2ccccc2)nc1NCc1ccccc1 ?
Mtb bLac sens: 99; Mtb H37Rv: 65%; RecA splice inh: -3.0; Arbovirus inh: -5; YopH PTP inh: -44

What do the screens show for `CC(=O)c1ccc(NC(=O)CSc2nnc(NC(=O)c3ccco3)s2)cc1`?
Mtb bLac sens: -7; RecA splice inh: 0.9

What do the screens show for `CCCCN(Cc1cc2cc(OC)ccc2[nH]c1=O)C(=O)COc1ccccc1`?
Mtb bLac sens: -2; Mtb H37Rv: 4%; RecA splice inh: -3.7; YopH PTP inh: 10

How did O=C(Nc1cccc(S(=O)(=O)C(F)F)c1)c1ccc(Cl)c(S(=O)(=O)N2CCOCC2)c1 do in these assays?
Mtb bLac sens: -2; Mtb H37Rv: 2%; RecA splice inh: -0.5; Arbovirus inh: -7; YopH PTP inh: -23

How did COc1ccc(Cc2c(Cl)ncnc2Cl)cc1 do in these assays?
Mtb bLac sens: 6; Mtb H37Rv: 2%; RecA splice inh: 0.9; Arbovirus inh: -6; YopH PTP inh: -17

What do the screens show for `CCc1c(C)nc2cc(-c3cc(OC)cc(OC)c3)nn2c1N1CCN(CCN2CCOCC2)CC1`?
Mtb bLac sens: -9; Mtb H37Rv: 6%; RecA splice inh: -0.6; Arbovirus inh: -18; YopH PTP inh: -6

Results for CCc1ccc(-c2nc(CN3CCC(C(=O)NCc4ccco4)CC3)c(C)o2)cc1 ?
Mtb bLac sens: 6; Mtb H37Rv: -5%; RecA splice inh: -0.8; Arbovirus inh: 10; YopH PTP inh: -6

Pulled by structure from the list above (2):
How did c1ccc(-c2nc3ccccn3c2NCc2ccc3c(c2)OCO3)cc1 do in these assays?
Mtb bLac sens: 8; Mtb H37Rv: 3%; RecA splice inh: -4.0; Arbovirus inh: 7; YopH PTP inh: -90

How did COc1ccc(Cc2c(Cl)ncnc2Cl)cc1 do in these assays?
Mtb bLac sens: 6; Mtb H37Rv: 2%; RecA splice inh: 0.9; Arbovirus inh: -6; YopH PTP inh: -17

Later entries:
What do the screens show for `CC1(C)C(C#N)=C(N)Oc2c1c(=O)oc1ccccc21`?
Mtb bLac sens: -1; Mtb H37Rv: -8%; RecA splice inh: 0.0

What do the screens show for `COc1ccccc1COc1ccc2c(C)c(CC(=O)O)c(=O)oc2c1C`?
Mtb bLac sens: 3; RecA splice inh: 1.6

What do the screens show for `Cc1cccc(/C=C/c2onc(C)c2S(=O)(=O)N2CCC(C(=O)N3CCC(C)CC3)CC2)c1`?
Mtb bLac sens: -11; RecA splice inh: 4.2

Results for COc1ccc(CN2CCC(C(=O)Nc3ccc(Oc4ccccc4)nc3)CC2)cc1F ?
Mtb bLac sens: inconclusive; RecA splice inh: 0.1

Results for CCn1c2ccccc2c2cc(NC(=O)CSc3nnc(-c4ccccc4OC)n3N)ccc21 ?
Mtb bLac sens: 12; Mtb H37Rv: 3%; RecA splice inh: 5.0; Arbovirus inh: -3; YopH PTP inh: -6

What do the screens show for `CCN(CC)CCn1c2c(c(SCC(=O)Nc3nc4ccc(C)cc4s3)nc1=O)CCC2`?
Mtb bLac sens: 4; RecA splice inh: 4.5

What do the screens show for `COc1ccc(NC(=O)COc2ccc(C(=O)c3ccc(F)cc3)cc2)cc1S(N)(=O)=O`?
Mtb bLac sens: 8; RecA splice inh: 0.9

Results for CN1C(=O)C(=Cc2ccccc2OCc2ccc(Cl)cc2)C(=O)N(C)C1=O ?
Mtb bLac sens: 8; Mtb H37Rv: 3%; RecA splice inh: 1.3; Arbovirus inh: -1; YopH PTP inh: -23

What do the screens show for `COc1cc(CNC(=O)c2ccc3oc(C(C)C)nc3c2)cc(OC)c1`?
Mtb bLac sens: 5; RecA splice inh: -0.3

Results for COc1ccc(-c2oc(NC(=O)CSc3ncn[nH]3)c(C#N)c2-c2ccc(OC)cc2)cc1 ?
Mtb bLac sens: -3; Mtb H37Rv: 7%; RecA splice inh: 18; Arbovirus inh: 4; YopH PTP inh: -57

How did O=C1NC(=S)S/C1=C/c1ccc(OC(=O)c2ccco2)cc1 do in these assays?
Mtb bLac sens: 17; RecA splice inh: 8.6

What do the screens show for `Cc1cc(C)n(CCC(=O)Nc2ccc(-c3ccno3)cc2)n1`?
Mtb bLac sens: 0; RecA splice inh: -0.7

Results for Cc1ccc(NC(=O)NCCN2CCCCC2)cc1Cl ?
Mtb bLac sens: -3; RecA splice inh: -1.0

How did Cc1ccc(CC(=O)Nc2ccccc2N2CCOCC2)cc1C do in these assays?
Mtb bLac sens: -10; Mtb H37Rv: -10%; Arbovirus inh: 4; YopH PTP inh: 5

Results for CC(CN1CCCC1)C(=O)NN (centres undefined) ?
Mtb bLac sens: -10; Mtb H37Rv: 0%; RecA splice inh: -1.2; Arbovirus inh: 4

What do the screens show for `CCc1nnc(NC(=O)CCN2C(=O)/C(=C/c3cc(OC)c(OC)c(OC)c3)SC2=S)s1`?
Mtb bLac sens: -3; RecA splice inh: 1.9

How did COc1ccc2c(c1)CCC1=C2NC(=S)NC1c1ccc(N(C)C)cc1 (centres undefined) do in these assays?
Mtb bLac sens: 5; Mtb H37Rv: 1%; RecA splice inh: 10; Arbovirus inh: 6

Results for Cc1nc(NS(=O)(=O)c2ccccc2)sc1NC(=O)OC(C)C ?
Mtb bLac sens: -1; Mtb H37Rv: 7%; RecA splice inh: -4.0; Arbovirus inh: 0; YopH PTP inh: -38

Results for Cc1ccccc1-c1nc(CS(=O)CC(=O)NC(C)CCc2ccccc2)c(C)o1 (centres undefined) ?
Mtb bLac sens: -7; RecA splice inh: -2.2

How did Cc1ccc(NC(=O)c2cc(S(=O)(=O)NCCC3=CCCCC3)ccc2F)cc1 do in these assays?
Mtb bLac sens: -2; Mtb H37Rv: 9%; RecA splice inh: 6.6; Arbovirus inh: 16; YopH PTP inh: -17

How did Cc1ccc(-n2ncc(C(=O)N3CCN(C(=O)c4ccco4)CC3)c2-n2cccc2)cc1 do in these assays?
Mtb bLac sens: 0; RecA splice inh: 0.4

How did Cc1ccc(NC(=O)c2ccc([N+](=O)[O-])cc2)cc1S(=O)(=O)N(C)C do in these assays?
Mtb bLac sens: -4; Mtb H37Rv: -9%; RecA splice inh: -11; Arbovirus inh: 0

How did Cc1ccc(C(=O)Nc2ccccc2)cc1S(=O)(=O)Nc1ccc(Cl)cn1 do in these assays?
Mtb bLac sens: -4; Mtb H37Rv: -5%; RecA splice inh: 0.5; Arbovirus inh: 14

Results for O=C(c1ccccc1)c1cnc2ccc(Cl)cc2c1N1CCOCC1 ?
Mtb bLac sens: 4; Mtb H37Rv: -2%; RecA splice inh: 0.7; Arbovirus inh: -5

Results for COCCN(C(=O)c1csnn1)C(C(=O)NC1CCCCC1)c1ccccc1 (centres undefined) ?
Mtb bLac sens: 1; RecA splice inh: -0.4

Results for COc1cccc(/C=N/NC(=O)CCc2c(C)n[nH]c2C)c1 ?
Mtb bLac sens: -8; Mtb H37Rv: -7%; RecA splice inh: -0.1; Arbovirus inh: -5; YopH PTP inh: -6

How did CC/C(=N\NS(C)(=O)=O)c1ccccc1 do in these assays?
Mtb bLac sens: 6; Mtb H37Rv: -9%; RecA splice inh: 0.7; Arbovirus inh: 10; YopH PTP inh: -11

Results for O=C(OCC(=O)N1CCN(C(=O)c2ccco2)CC1)c1cc(-c2ccccc2)nc2ccccc12 ?
Mtb bLac sens: 99; Mtb H37Rv: 5%; RecA splice inh: 4.1; Arbovirus inh: 0; YopH PTP inh: -44

How did Cc1ccnc(N2CCC(C(=O)Nc3cccc(C(F)(F)F)c3)CC2)n1 do in these assays?
Mtb bLac sens: inconclusive; Mtb H37Rv: -5%; RecA splice inh: 0.9; Arbovirus inh: -1; YopH PTP inh: -1

How did COc1cc(CN2CCN(CCCc3ccccc3)C(CCO)C2)cc(OC)c1O (centres undefined) do in these assays?
Mtb bLac sens: 2; RecA splice inh: -3.0

Results for c1ccc(Cc2nn3c(Cn4nnc5ccccc54)nnc3s2)cc1 ?
Mtb bLac sens: -3; RecA splice inh: 1.5; Arbovirus inh: 6; YopH PTP inh: -41

What do the screens show for `CCc1cccc(NC(=O)C2CCCN(S(=O)(=O)c3cccs3)C2)c1` (centres undefined)?
Mtb bLac sens: -5; RecA splice inh: 5.9

How did COc1ccc(NC(=S)Nc2ccccc2)cn1 do in these assays?
Mtb bLac sens: -3; Mtb H37Rv: -12%; RecA splice inh: 0.3; Arbovirus inh: -7; YopH PTP inh: -21

How did CCn1ncc(S(=O)(=O)Nc2cc(Cl)ccc2C)c1C do in these assays?
Mtb bLac sens: -15; RecA splice inh: 0.9

Results for COc1cccc(Cn2cccc(NC(=O)NCc3ccccc3)c2=O)c1 ?
Mtb bLac sens: 1; RecA splice inh: 3.0

How did O=C(C1=C(O)C(=O)N(c2nccs2)C1c1ccccc1)c1cc2ccccc2o1 (centres undefined) do in these assays?
Mtb bLac sens: -5; Mtb H37Rv: -4%; RecA splice inh: -0.2

What do the screens show for `Cc1nn(C)c(C)c1S(=O)(=O)N(CC(=O)NC1CCCCCC1)c1ccc(C(C)C)cc1`?
Mtb bLac sens: 10; Mtb H37Rv: 3%; RecA splice inh: 2.6; Arbovirus inh: 0; YopH PTP inh: -65

Source: PubChem (several laboratories)
